Rango release inh – inhibition of RanGTP-driven Rango-importin beta dissociation; Biochemical FRET Rango-importin beta, RanGTP-induced dissociation; Potency, µM (series often up to 46.1 µM), for inactives: top-dose activity change, negative = inhibition; actives 0.071% (n = 340,000); AID 540253; active means falling FRET ratio curve, often poorly fitted, with flat reads before Ran was added; inconclusive means other falling curves, or compound fluorescence or quenching; inactive means flat or rising ratio curve;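 further: potency means the concentration at half of the fitted maximal effect; % of control where 0% means no effect; nearly all actives have a fitted effect of over 45% in size; -100% = wells without RanGTP and RCC1; the record marks most hits as doubtful in a second field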
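Compounds preincubate 5 min with complex of recombinant Rango and importin beta in PBS with 1 mM DTT. Ran (0.6 uM) loaded with 2 mM GTP plus 0.2 uM RCC1 starts dissociation; FRET is recorded 45 min later.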
GLA inh pH 4.5 – alpha-galactosidase A (human) inhibition, pH 4.5 | purified enzyme, 4-MU-alpha-Gal fluorescence, pH 4.5 | 230,000 tested, under 10 active | P06280 | activity change, negative = inhibition, % at 105 µM | AID 1467; inconclusive = small, poorly fitted or top-dose-only inhibition, or a rising curve; inactive = flat fitted curve, though single readings scatter; no compound was filed as active;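 further: 0% = full activity with enzyme and -100% = basal without enzyme; dose as in the result columns while the protocol names 77 µM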
miR-21 reporter – raises the signal of a miR-21 reporter. HeLa miR-21 FLuc reporter, luciferase, 48 h. Potency, µM (highest dose often 38.3 µM), for inactives: top-dose reporter change, positive = more light. AID 2288. 340,000 tested, under 10 active; active = well fitted rising curve with a large enough effect; inconclusive = small, poorly fitted or top-dose-only effect; inactive = no such curve, though single readings can be large or run the other way;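 further: % of control where 0% means no effect; miR-21 action dims this reporter so a rising signal means less miR-21 action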
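Luminescence from a firefly luciferase reporter carrying a miR-21 binding site downstream, stably expressed under a CMV promoter in HeLa cells that make miR-21 endogenously, reports miRNA modulation after 48 h compound exposure up to approximately 40uM final.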
Rango-impB inh – Rango-importin beta binding inhibition; Q14974; Rango CFP/YFP FRET sensor + importin beta, 45 min; Potency, µM (top dose mostly 92.2 µM), for inactives: top-dose inhibition of complex formation; actives 0.031% (n = 340,000); AID 540263; active = rising FRET ratio curve, often small or poorly fitted; inconclusive = mostly compound fluorescence or quenching in the first reads; inactive = flat curves in all reads;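 further: potency means the concentration at half of the fitted maximal effect; 0% = DMSO wells and 100% = buffer wells lacking importin beta; nearly all actives have a fitted effect of over 15% in size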
Target sequence (Q14974 whole entry, looked up): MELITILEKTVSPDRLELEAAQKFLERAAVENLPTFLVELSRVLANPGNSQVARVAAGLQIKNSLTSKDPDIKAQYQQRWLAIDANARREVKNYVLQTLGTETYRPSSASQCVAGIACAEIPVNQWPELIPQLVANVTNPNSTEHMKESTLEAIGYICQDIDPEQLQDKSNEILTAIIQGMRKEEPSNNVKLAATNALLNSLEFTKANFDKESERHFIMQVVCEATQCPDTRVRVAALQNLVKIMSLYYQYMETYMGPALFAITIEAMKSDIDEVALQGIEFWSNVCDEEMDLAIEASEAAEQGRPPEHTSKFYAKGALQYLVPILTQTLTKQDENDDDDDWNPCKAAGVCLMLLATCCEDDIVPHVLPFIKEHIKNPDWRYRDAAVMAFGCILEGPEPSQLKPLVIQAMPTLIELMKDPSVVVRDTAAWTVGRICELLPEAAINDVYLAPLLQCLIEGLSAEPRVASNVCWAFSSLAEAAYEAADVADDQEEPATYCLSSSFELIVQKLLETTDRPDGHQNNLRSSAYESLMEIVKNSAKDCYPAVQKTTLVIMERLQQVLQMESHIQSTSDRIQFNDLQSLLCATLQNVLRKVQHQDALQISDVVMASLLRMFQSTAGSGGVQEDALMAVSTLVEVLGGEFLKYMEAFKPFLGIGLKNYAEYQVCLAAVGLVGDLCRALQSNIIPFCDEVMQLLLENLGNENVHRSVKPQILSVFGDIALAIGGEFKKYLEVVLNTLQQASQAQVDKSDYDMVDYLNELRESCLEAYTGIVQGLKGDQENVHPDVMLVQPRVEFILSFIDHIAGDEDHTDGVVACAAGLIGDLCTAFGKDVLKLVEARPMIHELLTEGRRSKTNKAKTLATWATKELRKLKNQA
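FRET biosensor (snurportin 1 IBB flanked by EYFP and cerulean), 50 nM, with compound 5 min, then 0.125 microM importin beta in PBS, 1 mM DTT, 0.02% Tween-20, 0.1% BSA. CFP/YFP ratio read after 45 min at room temperature; pre-read flags interference.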
An asterisk follows results filed as active; ? = inconclusive; / = no result given; & = joins results of further samples. A portion of the library, so the mix of outcomes need not match the whole.

canonical_smiles	Rango release inh	GLA inh pH 4.5	miR-21 reporter	Rango-impB inh
c1ccc(Nc2ccc(-n3ccnc3)nn2)cc1	-2.5%	6.4	-18.3%	3.3%
CCCn1nnnc1SCC(=O)c1ccc(NC(C)=O)cc1	0.5%	5.8	-4.0%	5.4%
CCOC(=O)C1C(=O)N(C(=O)c2cncc(Br)c2)CC1c1ccccc1 (centres undefined)	18.7%	4.3	3.3%	2.9%
O=C(NCCS(=O)(=O)N1CCN(c2ccc(F)cc2)CC1)C1CC(=O)N(c2ccccc2)C1 (centres undefined)	13.0%	/	-1.9%&-0.8%	?
C=CCOc1ccc(/C=C/C(C)=N\O)cc1	7.2%	-4.7	-46.4%	-1.7%
O=C(NCCc1ccc(Cl)cc1)C1CCCN(c2ncnc3c2nc2n3CCCCC2)C1 (centres undefined)	2.8%	/	-2.8%	-0.9%
O=C(CSCc1c(Cl)cccc1Cl)NCc1cccnc1	-7.8%	-21.5	-8.2%	5.1%
Cc1ccc(NC2=CC(=O)C(=O)c3ccccc32)cc1	17.1%	-6.6	-3.0%	0.1%
COc1ccc(NC(=O)COC(=O)c2ccncc2)c(OC)c1	-12.5%	7.5	0.0%	2.7%
O=S(=O)(O)c1nnc2sc3ccccc3n12	-10.0%	-14.8	-0.7%	2.8%
Clc1ccc(CN(Cc2ccc(Cl)cc2)c2nn[nH]n2)cc1	-1.0%	-1.8	-1.1%	0.9%
COc1ccc(C(=O)Nc2nc3ccccc3[nH]2)cc1S(=O)(=O)N1CCOCC1	7.1%	11.2	4.9%	-3.9%
Cc1cc(C(=O)Nc2ccccc2C#N)n(-c2ccccc2)n1	1.1%	5.3	-4.8%	8.4%
Cc1nc2ccccc2n1Cc1n[nH]c(=S)n1-c1ccc(Cl)cc1	6.9%	-2.9	-5.5%	2.6%
COc1ccc(CCNC(=O)CSc2nc3scc(-c4ccccc4)c3c(=O)[nH]2)cc1	-3.8%	/	/	-0.5%
Cc1ccc(C)c(-n2sc3ccc(F)cc3c2=O)c1	1.4%	/	/	-0.4%
COc1ccc(N2CC(C(=O)NCCC3=CCCCC3)CC2=O)c(OC)c1 (centres undefined)	-1.4%	/	/	3.2%
O=C(C1CCCN(c2ncnc3c2nc2n3CCCCC2)C1)N1CCN(c2ccccc2)CC1 (centres undefined)	16.5%	/	19.3%	1.7%
CCOC(=O)c1c(NC(=O)COC(=O)c2ncc(Cl)c(Cl)c2Cl)sc(C(=O)N(C)C)c1C	-7.7%	/	/	12.0%
CCCc1cc(C(=O)Nc2ccc(F)c(Cl)c2)no1	0.5%	/	-21.1%	-1.3%

Next results follow.
canonical_smiles	Rango release inh	GLA inh pH 4.5	miR-21 reporter	Rango-impB inh
CCOc1cccc(-c2cc(-c3n[nH]c(=S)n3CC)c3ccccc3n2)c1	-0.3%	-2.0	-0.3%	0.7%
CCNc1nc(N)c(C(=O)c2ccc(Cl)s2)s1	-9.5%	-7.4	-40.2%	?
Nc1ccc(Oc2ccc(Br)cc2)cc1	26.8%	-0.7	-3.6%	-1.4%
CCN1CCCC1CNC(=O)c1cn(CC)c2ccc(S(=O)(=O)N3CCCCCC3)cc2c1=O (centres undefined)	/	-4.7	-10.2%	/
c1ccc(Sc2ncccn2)nc1	0.4%	-3.1	8.7%	-0.5%
COc1ccc(CCNc2ccc([N+](=O)[O-])cn2)cc1	-11.0%	/	2.2%	3.8%
Cn1c(=O)n(C)c2cc(/C=N/NC(=O)c3ccc(Cl)cc3)ccc21	-22.3%	-3.1	3.0%	-0.1%
CCOC(=O)N1CCN(C(=O)/C(=C/c2ccccc2OC)NC(=O)c2ccccc2)CC1	0.7%	1.4	-4.5%	1.1%
CCN(CC(=O)Nc1c(F)cccc1F)C(=O)CCN1C(=O)C2CC=CCC2C1=O (centres undefined)	4.5%	/	/	6.6%
Cc1ccc(C(=O)Nc2ccc(SC(F)F)cc2)s1	-11.9%	-15.3	-29.4%	0.2%
S=C(c1ccc2c(c1)OCO2)N1CCCCC1	-1.4%	/	-2.8%	0.7%
CCNC(=S)NNc1nc(N2CCOCC2)nc(N2CCOCC2)n1	17.2%	4.2	2.6%	5.8%
COc1ccc(C(=O)NCc2nnc(SCC(=O)N3CCC(C)CC3)o2)cc1OC	-8.3%	0.8	-3.0%	-2.0%
Cc1cc(C)c2c(c1)NC(=O)C2(O)CC(=O)c1cccs1 (centres undefined)	15.8%	5.9	-14.3%	6.3%
CC(OC(=O)c1ccc(CN2CCCC2=O)cc1)C(=O)Nc1ccc(Cl)cc1 (centres undefined)	1.1%	/	/	5.4%
CCC(C)NC(=O)CN(c1ccc(OC)cc1)S(=O)(=O)c1ccccc1 (centres undefined)	-8.1%	-6.9	-14.9%	0.2%
C/C(=N/NC(=O)c1ccccn1)c1ccncc1	8.6%	/	-50.6%	0.4%
C/C(=N\NC(=O)c1ccccc1Br)c1ccc(N2CCOCC2)cc1	-1.1%	2.0	-25.4%	-1.8%
Nc1nc2cc(Br)ccc2o1	1.9%	/	/	-0.1%
COc1ccc2oc(C(=O)OCC(=O)N(CC(C)C)c3c(N)n(Cc4ccccc4)c(=O)[nH]c3=O)c(C)c2c1	-10.7%	/	/	0.4%

Following part:
canonical_smiles	Rango release inh	GLA inh pH 4.5	miR-21 reporter	Rango-impB inh
S=C(Nc1ccccc1)N1CCCN1c1ccccc1	3.6%	-16.9	-0.8%	-0.2%
Cc1nc2ccc(S(=O)(=O)N3CCCCC3)cc2s1	-6.9%	/	-5.0%	1.4%
Cc1ccc(NC(=O)CN2C(=O)NC3(CCCCC3)C2=O)cc1S(=O)(=O)N1CCOCC1	1.6%	/	/	-2.6%
O=C(N/N=C/c1cccs1)c1cccc(NC(=O)c2ccccc2Cl)c1	11.7%	-1.6	-13.5%	0.5%
O=C(CSc1nnc(-c2cccnc2)s1)Nc1ccnc2ccccc12	0.8%	-0.4	25.3%	1.4%
COc1cc(/C=N/NC(=O)CNC(=O)c2ccco2)ccc1O	-7.8%	5.1	-0.7%	-1.5%
Cc1cccc(OCCc2nnc(N)s2)c1C	2.9%	9.6	-9.9%	0.8%
Cc1ccc(-n2nc3cc(Cl)c(NC(=O)c4ccco4)cc3n2)cc1	-1.4%	0.4	-47.5%	-1.1%
O=C(Nc1ccc(Cl)cc1)Nc1nnc(CSCc2ccc(Cl)cc2)s1	-10.3%	5.4	-3.5%	0.6%
Cc1nc(NCCN2CCOCC2)c2oc3ccccc3c2n1	4.0%	1.9	-4.6%	-1.3%
Cc1noc(C)c1C(=O)Nc1ccccc1N1CCCC1	-13.5%	/	/	-0.6%
NS(=O)(=O)c1cc2c(cc1Cl)NC(C(Cl)Cl)NS2(=O)=O (centres undefined)	-6.6%	1.8	-3.3%	0.7%
CC(C)CN(C(=O)CSc1nnc2c(Cl)cc(C(F)(F)F)cn12)C1CCS(=O)(=O)C1 (centres undefined)	0.7%	-0.9	-4.1%	0.7%
Nc1nnc(CSCc2ccccc2)s1	0.9%	-4.7	-10.3%	-0.1%
O=C1c2cccc3cccc(c23)C(=O)N1OS(=O)(=O)c1ccc(Cl)cc1	-2.2%	-4.1	-6.7%	4.7%
Cc1sc2nc(COC(=O)c3c(F)cccc3F)[nH]c(=O)c2c1C	2.6%	3.9	-0.9%	0.0%
COc1cc2cc(C(=O)N3CCC(Cc4ccccc4)CC3)[nH]c2cc1OC	-10.6%	/	-3.0%	1.3%
O=C1/C(=C/c2ccco2)CCC1C1CCCC1 (centres undefined)	3.4%	-0.9	-20.7%	-0.2%
O=C(/C=C/c1ccccc1)CC(O)(c1ccccc1)C(F)(F)C(F)F (centres undefined)	4.3%	-4.8	?	3.5%
COc1ccc(-n2c(C)cc(C(=O)COc3ccc(C)nc3[N+](=O)[O-])c2C)cc1	15.2%	4.9	-6.2%	-5.8%

More entries:
canonical_smiles	Rango release inh	GLA inh pH 4.5	miR-21 reporter	Rango-impB inh
Cc1ccc(S(=O)(=O)N(C)C)cc1NC(=O)C1CCCCN1S(=O)(=O)c1ccccc1 (centres undefined)	-5.6%	/	/	-5.4%
Cc1ccc(C(=O)N2CCN(c3ccccc3O)CC2)cc1S(=O)(=O)N1CCCCC1	-3.3%	/	/	-0.7%
COC(=O)c1ccc(OC(=O)c2ccncc2)cc1O	-4.4%	/	-30.1%	2.7%
N#Cc1c(-c2ccc(F)cc2)nc2n(c1=O)CCS2	-0.7%	5.3	-1.5%	-0.2%
COc1ccccc1C(=O)N/C(=C/c1ccccc1)C(=O)Nc1ccc(C(=O)O)cc1	-5.7%	-2.0	3.2%	-4.5%
Cc1nn(C(C)C(=O)NCCc2ccco2)c(=O)c2nn(-c3ccccc3)c(C)c12 (centres undefined)	-6.0%	/	-2.3%	-1.2%
COc1ccc(OC)c(/C=N\NC(=O)c2ccc(COc3ccc(C)cc3[N+](=O)[O-])o2)c1	-3.7%	/	/	0.4%
O=c1cc(CSc2nnc(Nc3ccccc3)s2)nc2sccn12	-3.8%	3.4	-1.9%	1.6%
Cc1cc([N+](=O)[O-])ccc1-c1ccc(C2Nc3ccccc3C(=O)N2O)o1 (centres undefined)	10.5%	-2.9	15.2%	3.3%
COc1cc(NC(=O)c2ccc(C(=O)c3ccccc3)cc2)cc(OC)c1OC	-14.0%	/	2.1%	1.7%
COc1ccc(N2CCN(C(=O)c3ccc(CS(=O)(=O)c4ccc(Br)cc4)o3)CC2)cc1	-0.9%	/	-0.1%&1.9%	-2.1%
O=C1C=C(Nc2ccc(O)cc2)CC(c2ccco2)C1 (centres undefined)	-24.6%	0.5	20.2%	?
Cn1c(=O)cc(OCCCC(=O)N2CCN(c3ccccn3)CC2)c2ccccc21	-3.3%	1.0	0.3%	0.2%
CSc1ccc(S(=O)(=O)Nc2ccc3c4c(cccc24)CC3)cc1	-7.8%	?	0.7%	-0.5%
COc1ccc(N(CC(=O)NCCc2ccc(OC)c(OC)c2)S(=O)(=O)c2c(C)noc2C)cc1	23.5%	/	0.0%	8.9%
O=C(c1ccc(S(=O)(=O)N2CCCC2)cc1)N1CCN(c2ccccc2)CC1	2.9%	/	-4.2%	3.9%
COc1ccnc(N2CCN(c3ccc(Cl)cc3)CC2)c1C#N	17.8%	-14.1	-22.7%	-3.0%
CCOC(=O)Cc1c(C)c2c(C)nn(-c3ccccc3)c2oc1=O	1.3%	3.8	-1.3%	1.4%
Cc1ccc(C(=O)N(CCCN(C)C)c2nc3ccc(Cl)cc3s2)cc1C	-0.2%	-4.9	6.8%	2.3%
O=C(CN1C(=O)NC2(CCCC2)C1=O)Nc1cccc(Cl)c1Cl	0.4%	/	-4.7%	5.3%

More compounds
canonical_smiles	Rango release inh	GLA inh pH 4.5	miR-21 reporter	Rango-impB inh
O=C(N=c1ccn(-c2nc3ccccc3nc2NS(=O)(=O)c2ccc(Cl)cc2)cc1)c1cccs1	?	-0.4	-4.8%	?
Cc1ccc(NC(NC(=O)c2cccnc2)C(Cl)(Cl)Cl)cc1 (centres undefined)	-3.3%	-0.2	-1.5%	-2.7%
COc1ccc(-c2nc(C#N)c(N3CCCCC3)o2)cc1	4.7%	/	-10.2%	?
C=CCNC(=O)C(=O)NCCCN1CCOCC1	0.6%	10.6	-0.6%	0.0%
O=C(C(Cc1ccccc1)N1C(=O)C2C3CCC(C3)C2C1=O)N1CCCCC1 (centres undefined)	2.0%	0.6	-0.2%	2.1%

Compound activity deposited in PubChem BioAssay by National Center for Advancing Translational Sciences (NCATS).
